Screens from PubChem.
Mtb betalactam = beta-lactam sensitization of Mtb H37Rv, H37Rv; M. tuberculosis H37Rv growth with meropenem, percent inhibition; hits of this screen are not shown here; inhibition, % at 25 µM; 330,000 compounds, 0.27% hits;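 active = about 74% or more and at least 40 points above the plate without the antibiotic, then above 30% in a dose series; inconclusive = first-round hits that could not be retested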;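 also: growth measured after seven days incubation then overnight dye step; 0% = bacteria only wells and 100% = bacteria with antibiotic; twin plates without the antibiotic show which effects depend on it; some results filed as inactive read as strong as hits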
Active calls of the source: *; ? = inconclusive. An excerpt; the hit share may differ from the screen's.

SMILES | Mtb betalactam
Cc1ccc(C2c3[nH]c4ccccc4c3C[C@H]3C(=O)N(c4ccccc4C(=O)NCCCN4CCOCC4)C(=O)N23)cc1 (stereo not given in full) | -4
c1ccc(Cn2cc(-c3cccnc3)cn2)cc1 | 5
COc1ccc(CN(C)C(=O)Cc2ccc(OC)c(S(=O)(=O)N3CCOCC3)c2)cc1OC | 8
O=C1OC(CC(=O)N(Cc2nnc(-c3ccccc3Cl)o2)C2CC2)c2ccccc21 (stereo not given) | -10
O=C(NC12CC3CC(CC(C3)C1)C2)c1ccc([N+](=O)[O-])cc1 | 1
COc1ccc(S(=O)(=O)Nc2cccc3c2O[C@H](CN(C)S(=O)(=O)c2ccc(OC)cc2)[C@@H](C)CN([C@H](C)CO)C3=O)cc1 | -5
Cc1cccc(NC(=O)C2CC2c2ccccc2)c1C (stereo not given) | 1
COc1ccc(C(=O)NCC(=O)OCc2nc(N)nc(Nc3ccccc3C)n2)cc1 | -2
O=C(NCc1ccc2c(c1)OCO2)c1cc([N+](=O)[O-])ccc1N1CCOCC1 | -2
C#CCOCCOCCOCCNc1nc(N2CCN(C(=O)[C@H](CCC(=O)O)n3cc([C@@H](N)CO)nn3)CC2)nc(N2CCN(C(=O)[C@H](CCC(=O)O)n3cc([C@@H](N)CCSC)nn3)CC2)n1 | -5
COc1cccc(/C=C/C(=O)OCC(=O)NC2CC2)c1OC | -3
Cn1ccnc1CN1CCN(C(=O)c2cc(COc3ccc(F)c(F)c3)on2)CC1 | ?
O=C(CN1CCN(S(=O)(=O)c2ccc(Cl)s2)CC1)N1CCCCC1 | -3
CC(=O)OC(C)=O | -5
C[C@H](CO)N1C[C@H](C)[C@@H](CN(C)Cc2ccc(C(=O)O)cc2)Oc2ccc(NS(C)(=O)=O)cc2C1=O | 3
CN(CC(=O)Nc1ccc(F)cc1)C(=O)CSc1ccc2c(c1)OCCO2 | -1
COc1ccc(NC(=O)N2CCCC2C(=O)Nc2ccccc2F)cc1 (stereo not given) | -3
O=C(COc1ccc(Cl)cc1)Nc1ccc(CN2CCOCC2)cc1 | 1
C[C@H](CO)N1C[C@H](C)[C@@H](CN(C)Cc2ccncc2)Oc2ccc(NC(=O)Cn3cnnn3)cc2C1=O | -3
CCCN(CC(=O)Nc1ccccc1C)C(=O)Cc1c(C)nc2ccccc2c1C | 30
Cc1ccc(OCC(=O)N(C)CC(=O)Nc2ccc(N3CCOCC3)cc2)cc1 | 3
COC(=O)c1ccccc1S(=O)(=O)N1CCC(C(=O)NC2=NCCS2)CC1 | 2
C=CCSc1nnc(NC(=O)CCN2C(=O)C3CC=CCC3C2=O)s1 (stereo not given) | -2
CC1CCCC(C)N1C(=O)COC(=O)c1ccc(Br)o1 (stereo not given) | 3
CC(C)N(Cc1ccccc1)C(=O)COC(=O)C1CCCCC1 | -8

Later entries.
SMILES | Mtb betalactam
CCN(CC(=O)Nc1ccc(NC(C)=O)cc1)C(=O)CCCc1nc2ccccc2s1 | 1
NS(=O)(=O)c1ccc(NC(=O)COC(=O)CC2Sc3ccccc3NC2=O)cc1 (stereo not given) | -2
CN(C(=O)COc1ncnc2sccc12)C1CCCCC1 | -2
O=C(COC(=O)c1ccc([N+](=O)[O-])o1)Nc1ccc(N2CCOCC2)cc1 | 87
COc1ccc(C(C)(C)C)cc1NC(=O)CCN1C(=O)NC(C)(C)C1=O | -6
O=C(NNC(=O)C1CCC1)c1ccccc1 | -4
Cc1ccc(S(=O)(=O)N2CCOCC2)cc1C(=O)OCC(=O)NC1CC1 | -7
N#Cc1ccsc1NC(=O)C1CCN(C(=O)c2ccc(F)cc2)CC1 | -11
COc1cc(OC)c(C(=O)OCC(=O)Nc2ccc(S(=O)(=O)N3CCOCC3)cc2)cc1OC | 1
O=C1CC(c2cccc(O)c2)Oc2ccccc21 (stereo not given) | 81
Cc1csc(=O)n1CCC(=O)OCc1nnc(-c2ccc([N+](=O)[O-])cc2)o1 | -3
COC(=O)C1=C(c2ccccc2OCc2ccccc2)C[C@@H]2CC[C@H]1N2C(=O)NCCCOC(C)C | 10
CCCCN1CC(=O)N2[C@H]3c4cc(Br)ccc4OC[C@@H]3[C@H](C(=O)OCC)[C@]2(C)C1=O | 6
O=c1cc(OCc2ccccc2)cc[nH]1 | 0
CCNC(=O)N(C)C[C@H]1N[C@@](C)(C(=O)OC)[C@H]2C(=O)N(Cc3ccccc3)C(=O)[C@@H]12 | 1
C[C@H](CO)N1C[C@H](C)[C@@H](CN(C)C(=O)NC2CCCCC2)Oc2ccc(NC(=O)Nc3ccc(C(F)(F)F)cc3)cc2C1=O | 6
O=C(c1cc(-c2ccncc2)nc2ccccc12)N1CCN(c2ncccn2)CC1 | -1
CC(C)CC1NC(=O)c2ccccc2-n2c1nc1cc(F)ccc1c2=O (stereo not given) | -2
Cc1csc2nc(COC(=O)c3ccc(Cl)c([N+](=O)[O-])c3)cc(=O)n12 | 3
CC(Oc1ccc(Br)cc1Cl)C(=O)Nc1ccncc1 (stereo not given) | 3
Cc1cccc(NS(=O)(=O)c2ccc(C(=O)N3CCN(c4ccccc4O)CC3)cc2)c1C | 89
Cn1nnnc1Sc1ncnc2scc(-c3cccc4ccccc34)c12 | 58
COCCN(C(=O)CCC(=O)Nc1ccccn1)C(C(=O)NC(C)C)c1ccc(Cl)cc1 (stereo not given) | -11
COc1ccc(Cl)cc1C(=O)Nc1nc(C)cc(C)n1 | -6
O=C(NCCc1ccc(F)cc1)c1cc([N+](=O)[O-])ccc1N1CCOCC1 | -3

Continuation.
SMILES | Mtb betalactam
CCc1ccc(N2CC(C(=O)NC3CC3)CC2=O)cc1 (stereo not given) | ?
CCOC(=O)[C@@H]1[C@H]2COc3ccc(Br)cc3[C@@H]2N2C(=O)N(c3ccc(C)cc3)C(=O)[C@@]12C | -6
COc1cc(C(=O)OCC(=O)Nc2c(C)n(C)n(-c3ccccc3)c2=O)c([N+](=O)[O-])cc1OC | 3
COc1cc(S(=O)(=O)Nc2ccc3c(c2)C(=O)N(C)C3=O)ccc1NC(C)=O | 4
COc1ccccc1OCCNC(=O)C1CC(=O)N(c2ccccc2OC)C1 (stereo not given) | 6
O=C1CCC/C=C/C[C@@H](CC(=O)N(CCO)Cc2ccccc2)C(=O)NC[C@H](c2ccccc2)O1 | -6
Cc1cc(Cl)ccc1OCC(=O)NNC(=O)c1cccnc1 | -5
COc1ccc(CN(C)C[C@H]2Oc3c(NC(=O)Nc4ccccc4)cccc3C(=O)N([C@H](C)CO)C[C@@H]2C)cc1 | 1
Cc1ccccc1NS(=O)(=O)c1ccc(C(=O)N2CCN(S(=O)(=O)c3ccccc3)CC2)cc1 | 2
CN(C)Cc1c(O)ccc2c(=O)c(-c3ccccc3Cl)c(C(F)(F)F)oc12 | 1
COc1cccc(S(=O)(=O)NC2CCN(C#N)C2)c1 (stereo not given) | -9
COc1ccc(NC(=O)c2cc(F)cc(F)c2)cc1S(=O)(=O)N1CCCCC1 | -8
CCOc1cccc(C=NNc2ccc(S(=O)(=O)Nc3ccccc3C(=O)O)cc2[N+](=O)[O-])c1O | 1
CCN(C[C@H]1N[C@@](Cc2ccccc2)(C(=O)OC)[C@H]2C(=O)N(C)C(=O)[C@@H]12)C(=O)Nc1ccc(Cl)cc1 | 8
O=C(COc1ccccc1Cl)NNC(=O)c1ccc2c(=O)n3c(nc2c1)CCC3 | -4
COc1ccc(OC)c(NC(=O)C(C)SCc2nc3sc(C)c(C)c3c(=O)[nH]2)c1 (stereo not given) | -3
CCC(C)N(C(=O)CSc1nncn1C)C1CCS(=O)(=O)C1 (stereo not given) | -6
CC(=O)c1ccc(N2CCN(C(=O)c3ccc(S(=O)(=O)NCc4ccco4)cc3)CC2)cc1 | 0
CC(=O)Nc1ccc(S(=O)(=O)NCCC(=O)NNC(=O)c2ccncc2)cc1 | -11
CCCn1nc(C(=O)NC2CC2)c2ccccc2c1=O | 0
c1ccc(CNc2ccc(N3CCOCC3)cc2)cc1 | -4
O=C(Nc1ccccc1N1CCOCC1)C1=NN(c2c(F)c(F)cc(F)c2F)C(=O)CC1 | -5
CC(C)(C)N(Cc1ccccc1)C(=O)COC(=O)c1ccc([N+](=O)[O-])o1 | ?
C=CCn1c(SCC(=O)NC(=O)Cc2ccccc2)nnc1-c1ccccc1F | 0
CC[C@@]1(C(=O)OC)N[C@H](CN(C)S(=O)(=O)c2ccc(F)cc2)[C@@H]2C(=O)N(C)C(=O)[C@@H]21 | 3

A second format for some results above.
smiles	Mtb betalactam
CCc1ccc(N2CC(C(=O)NC3CC3)CC2=O)cc1 (stereo not given)	?
CCOC(=O)[C@@H]1[C@H]2COc3ccc(Br)cc3[C@@H]2N2C(=O)N(c3ccc(C)cc3)C(=O)[C@@]12C	-6
COc1cc(C(=O)OCC(=O)Nc2c(C)n(C)n(-c3ccccc3)c2=O)c([N+](=O)[O-])cc1OC	3
COc1cc(S(=O)(=O)Nc2ccc3c(c2)C(=O)N(C)C3=O)ccc1NC(C)=O	4
COc1ccccc1OCCNC(=O)C1CC(=O)N(c2ccccc2OC)C1 (stereo not given)	6
O=C1CCC/C=C/C[C@@H](CC(=O)N(CCO)Cc2ccccc2)C(=O)NC[C@H](c2ccccc2)O1	-6
Cc1cc(Cl)ccc1OCC(=O)NNC(=O)c1cccnc1	-5
COc1ccc(CN(C)C[C@H]2Oc3c(NC(=O)Nc4ccccc4)cccc3C(=O)N([C@H](C)CO)C[C@@H]2C)cc1	1
Cc1ccccc1NS(=O)(=O)c1ccc(C(=O)N2CCN(S(=O)(=O)c3ccccc3)CC2)cc1	2
CN(C)Cc1c(O)ccc2c(=O)c(-c3ccccc3Cl)c(C(F)(F)F)oc12	1
COc1cccc(S(=O)(=O)NC2CCN(C#N)C2)c1 (stereo not given)	-9
COc1ccc(NC(=O)c2cc(F)cc(F)c2)cc1S(=O)(=O)N1CCCCC1	-8
CCOc1cccc(C=NNc2ccc(S(=O)(=O)Nc3ccccc3C(=O)O)cc2[N+](=O)[O-])c1O	1
CCN(C[C@H]1N[C@@](Cc2ccccc2)(C(=O)OC)[C@H]2C(=O)N(C)C(=O)[C@@H]12)C(=O)Nc1ccc(Cl)cc1	8
O=C(COc1ccccc1Cl)NNC(=O)c1ccc2c(=O)n3c(nc2c1)CCC3	-4

(listing goes on)
SMILES | Mtb betalactam
CSc1ccccc1C(=O)OCC(=O)NCCN1C(=O)CSC1=O | 2
O=C(OCC(=O)N1CCc2ccccc21)c1ccc(Br)o1 | 5
CC(C)=CCOc1c2ccoc2c(OCC=C(C)C)c2oc(=O)ccc12 | 5
On1ccccc1=S | 100
Cc1c(C(=O)NCc2ccccc2CN2CCCC2)oc2ccc(F)cc12 | -4
COc1ccc([C@H]2CC(=O)C=C(c3ccc4c(c3)sc3ccccc34)C2)cc1 | 3
O=C(O)CCCN1C(=O)c2cccc3cccc(c23)C1=O | -17
Cc1cccc(C)c1NC(=O)CN1CCN(CC(=O)NCC2(N3CCCCC3)CCCCC2)CC1 | -1
COc1ccc(C(=O)NCC2CCCCC2)cc1S(=O)(=O)N1CCCC1 | -3
O=C1c2ccccc2C(=O)N1CCCCc1cn(C[C@H]2CC[C@@H]([C@@H]3CC[C@H](Cn4cc(CCCCN5C(=O)c6ccccc6C5=O)nn4)O3)O2)nn1 | -5
COc1cccc2cc(C(=O)OCC(=O)NC3CCCC(C)C3C)c(=O)oc12 (stereo not given) | 7
O=C(CN1C(=O)NC2(CCCCCC2)C1=O)NCc1ccccc1 | 1
COc1ccccc1CNC(=O)c1ccc(Cl)c(S(=O)(=O)N2CCCC2)c1 | -8
COc1cccc(OC)c1OCC(=O)Nc1ccc(S(=O)(=O)N2CCCC2)cc1 | 0
CCC(=O)N(c1nnc(SCC(=O)NN2C(=O)NC3(CCCCC3)C2=O)s1)C1CC1 | -7
CCN(CC)CCn1c(NS(=O)(=O)c2ccc(C)cc2)nc2ccccc21 | 9
CN(Cc1ccccc1F)c1ncnc2sccc12 | 4
CC1CCCCC1NC(=O)Cn1cnc2c1c(=O)n(C)c(=O)n2C (stereo not given) | -1
COC(=O)C1=C(c2ccc(F)cc2OCc2ccccc2)C[C@@H]2CC[C@H]1N2C(=O)NCCOc1ccccc1 | 7
CCOc1ccc(C(=O)CCC(=O)NNC(=O)c2ccccc2O)cc1 | 1
CCOc1ccc(NC(=O)CSc2nnnn2C2CC2)cc1S(=O)(=O)N1CCCC1 | 1
CS(=O)(=O)c1ccc(NC(=O)c2cccc(S(=O)(=O)N3CCN(Cc4ccccc4)CC3)c2)cc1 | -5
COc1cc(OC)cc(C(=O)NCC(=O)OCc2ccc(Cl)c(Cl)c2)c1 | -3
CC(=O)c1ccccc1NC(=O)C1CC(=O)N(c2ccc3c(c2)OCCO3)C1 (stereo not given) | 1
CCOC(=O)C1=C(CC)Nc2ccccc2N/C1=N\S(=O)(=O)c1cccc(C(C)=O)c1 | -5

(cont.)
SMILES | Mtb betalactam
Nc1nc(SCC(=O)Nc2cc(Cl)ccc2Cl)n[nH]1 | 0
COc1ccc(C(=O)Nc2ccc(C(=O)c3ccccc3)cc2)cc1 | -1
Cc1cc(OCC(=O)Nc2nnc(C3CC3)s2)ccc1C(C)C | -1
Cc1ccc(S(=O)(=O)N2[C@@H](c3cccc(Cl)c3)C(C(=O)O)=CC[C@H]2c2ccc(C(C)C)cc2)cc1 | 5
O=C(CCNS(=O)(=O)c1ccc2nsnc2c1)N1CCN(c2ccncc2)CC1 | -1
CCN(c1ccccc1)S(=O)(=O)c1ccc(Cl)c(NC(=O)CNCc2ccccc2OC)c1 | -13
O=C(NCC(c1ccco1)N1CCCC1)c1ccc(S(=O)(=O)Nc2ccc(F)cc2)cc1 (stereo not given) | -2
CCCCN1C(=O)C(=O)N(CC(=O)c2ccc3c(c2)CCCC3)C1=O | -5
CCc1ccccc1NC(=O)CN1CCN(CC(=O)NCc2ccc(Cl)cc2)CC1 | 3
CSc1ncccc1C(=O)N1CCN(S(=O)(=O)c2ccc3ccccc3c2)CC1 | -1
COc1ccc(C(=O)OCC(=O)c2ccc3c(c2)NC(=O)CO3)cc1S(=O)(=O)N1CCOCC1 | -4
COC(=O)c1c(-c2cc(OC)cc(OC)c2)sc2ccc(OC)cc12 | 47
COCCn1c(SCC(=O)Nc2c(C)n(C)n(-c3ccccc3)c2=O)nnc1-c1ccncc1 | 0
O=C(NCCCN1CCCC1=O)c1cccc(S(=O)(=O)N2CCCCC2)c1 | -1
COc1ccc(-c2nnn(CC(=O)Nc3ccc4c(c3)OCCO4)n2)cc1OC | 6
O=C(COc1ccc2cc(Br)ccc2c1)N1CCOCC1 | 4
